# Screening data from PubChem BioAssay.
# StopGo RLuc: Primary qHTS Assay for Foot and Mouth Disease Virus Antivirals against NCGC Sytravon and CBC Compound Libraries: Renilla Luciferase Signal. HEK cells with a luciferase reporter of 2A StopGo recoding. Potency, µM (series often up to 57.5 µM), inactives show at the highest dose signal change, negative = less light. 120,000 compounds, 0.32% hits. AID 1745857, 2022; active means well fitted falling curve with a large enough effect; inconclusive means small, poorly fitted or top-dose-only effect; inactive means no such curve, though single readings can be large or run the other way; also: nearly all actives have a fitted effect of over 55% in size; overnight with compound
# StopGo FLuc: Primary qHTS Assay for Foot and Mouth Disease Virus Antivirals against NCGC Sytravon and CBC Compound Libraries: Firefly Luciferase Signal; HEK cells with a luciferase reporter of 2A StopGo recoding; Potency, µM (top dose mostly 57.5 µM), without a hit: at the top dose signal change, negative = less light; AID 1745856, 2022; 120,000 compounds, 0.23% hits; active = well fitted falling curve with a large enough effect; inconclusive = small, poorly fitted or top-dose-only effect; inactive = no such curve, though single readings can be large or run the other way; also: nearly all actives have a fitted effect of over 60% in size; overnight with compound
# An asterisk follows results filed as active; ? = inconclusive; & = joins results of further samples; [ ] = remark or other dose. % is scaled to controls: 0 for no effect and ±100 for the full control effect; potency is read from the fitted curve at half-maximal effect.
SMILES	StopGo RLuc	StopGo FLuc
Cc1ccc(-n2ncc3c(=O)[nH]c(SCC(=O)Nc4ccc5c(c4)OCO5)nc32)cc1C	0.8%	1.5%
Cc1cc(SCC(=O)Nc2ccc(C(F)(F)F)cc2)nc(=O)[nH]1	-8.3%	0.3%
COc1ccc(-c2cc3nc(C)c(CCC(=O)Nc4cccc(C(F)(F)F)c4)c(C)n3n2)c(OC)c1	-7.9%	?
CC1CCN(S(=O)(=O)c2ccc3c(c2)N(CC(=O)NCCCN2CCCC(C)C2)C(=O)CS3)CC1 (stereo not given)	-23.7%	-25.8%
COC(=O)c1sccc1S(=O)(=O)N(CC(=O)NCc1ccc(C)cc1)c1ccccc1	29.3%	4.8%
CN(Cc1ccccc1)C(=O)c1cc2c(=O)n3ccccc3nc2s1	16.9%	0.0%
Cc1ccc(CC2C(=O)N(C)c3ccc(Br)cc32)cc1 (stereo not given)	4.2%	0.6%
CCOC(=O)C1=C(N)Oc2c(oc(CO)cc2=O)C1c1cc(Cl)ccc1Cl (stereo not given)	1.3%	-0.1%
CCCCCCCCOc1ccc(/C=C/C(=O)C2C(=O)C=C(C)OC2=O)cc1 (stereo not given)	-9.4%	-2.6%
CCOc1cccc(/C=C(/C#N)c2ccccn2)c1OC(F)F	-8.8%	0.0%
O=C1c2ccccc2NC(c2cccc(Cl)c2)N1c1ccc(N2CCOCC2)cc1 (stereo not given)	-5.1%	6.5%
COc1ccc(-c2c3c(=O)n(C)c(=O)n(C)c3c3c(-c4ccc(C)cc4)nc4ccccc4n23)cc1	-7.3%	4.8%
COc1cccc2c1Oc1ncccc1N(C(=O)CCC(=O)NCc1ccccc1Cl)C2	1.5%	-8.6%
CCC(=O)N1CCc2cc(S(=O)(=O)NC(Cc3ccccc3)C(=O)NCc3ccc(F)cc3)ccc21 (stereo not given)	47.6%[activator]	-21.3%
CCn1c(=O)cc(OCC(=O)Nc2ccccc2Cl)c2ccccc21	7.0%	22.5%
COc1ccc(Br)cc1CNC(=O)C1CCN(c2nnc(-n3cccc3CNc3ccc(C)cc3)s2)CC1	3.8%	19.2%
Cc1ccc(Sc2ccc(NC(=O)c3n[nH]c(=O)c4ccccc34)cc2)cc1C	-12.5%	-9.6%
Cc1cc(=O)n(CC(=O)NCc2ccc(OC(C)C)cc2)c2c1c(C)nn2-c1cccc(F)c1	-17.6%	-22.8%
Cc1cccc(C)c1NC(=O)CSc1nccn1C	-11.7%	-12.7%
CCOc1ccccc1CN1C(=O)CN(S(C)(=O)=O)CC1(C)C(=O)NCc1ccc(F)cc1 (stereo not given)	34.4%[activator]	-12.4%
Cc1ccc(CCNC(=O)Cn2nc(C)c3c(C)n(-c4ccc(C)cc4)nc3c2=O)cc1	-19.2%	-3.9%
COc1ccc(-c2cc(-c3nc(-c4cccc(Cl)c4)no3)[nH]n2)cc1	6.9%	43.5%[activator]
O=C(CN1CCCN(Cc2ccc(Cl)cc2)S1(=O)=O)Nc1ccccc1F	-1.8%	-8.3%
COc1ccccc1CNS(=O)(=O)c1ccc2c(c1)CC(=O)N2C	71.2%[activator]	-11.8%
CCc1ccc(NC(=O)C2CCN(c3nn4cc(-c5ccc(OC)cc5)nc4s3)CC2)cc1	-18.5%	20.6%
CCOCCn1c(SC)nc2c1c(=O)[nH]c(=O)n2C	-5.6%	1.0%
CN(CCc1ccccc1)C(=O)Cn1cc(C(N)=O)c2ccccc21	-13.9%	-0.7%
COC(=O)c1cc2c(C(F)(F)F)cc(-c3ccccc3)nc2s1	6.5%	6.2%
CCOc1ccc(CNS(=O)(=O)c2ccc(-c3ccc(=O)[nH]n3)o2)cc1OC	-0.1%	0.3%
CCN1CCN(C(=O)c2cc(=O)c3cc(C)ccc3o2)CC1	-0.6%	4.2%

# Profiles as entered above. Values in the order: StopGo RLuc | StopGo FLuc
# `Cc1ccc(CC2C(=O)N(C)c3ccc(Br)cc32)cc1` (stereo not given) is listed as 4.2% | 0.6%
# `CC1CCN(S(=O)(=O)c2ccc3c(c2)N(CC(=O)NCCCN2CCCC(C)C2)C(=O)CS3)CC1` (stereo not given) is listed as -23.7% | -25.8%

# Pulled one by one from the entries so far:
SMILES	StopGo RLuc	StopGo FLuc
Cc1cc(SCC(=O)Nc2ccc(C(F)(F)F)cc2)nc(=O)[nH]1	-8.3%	0.3%
CCOc1ccccc1CN1C(=O)CN(S(C)(=O)=O)CC1(C)C(=O)NCc1ccc(F)cc1 (stereo not given)	34.4%[activator]	-12.4%
COc1ccc(Br)cc1CNC(=O)C1CCN(c2nnc(-n3cccc3CNc3ccc(C)cc3)s2)CC1	3.8%	19.2%

# Carrying on:
SMILES	StopGo RLuc	StopGo FLuc
COCCNC(=O)NC(=O)CCl	-4.7%	12.0%
COc1ccc(CC(=O)NCc2ccc3c(c2)CCN3C(=O)c2cccc(C)c2)cc1	-17.0%	?
CCCOc1cccc(CNc2ccc(F)cc2)c1	10.2%	28.9%
O=C(Nc1ccccc1-n1cncn1)C1CC(=O)N(c2ccccc2Br)C1 (stereo not given)	-1.1%	-3.7%
Cn1nc(CC(=O)NCC(=O)OCc2ccccc2)c2ccccc2c1=O	9.6%	9.5%
CCOC(=O)C(C(=O)OCC)C(Nc1cccc(C)c1)c1ccccc1 (stereo not given)	-12.3%	13.7%
CCn1ccc2cc(S(=O)(=O)N3CCCN(C(=O)NCCOC)CC3)ccc21	14.2%	8.3%
Cc1cccc(-c2c(NC(=O)c3ccco3)oc3ccc(Cl)cc3c2=O)c1	-14.4%	15.6%
COC(=O)c1ccc(C2C(C(=O)OC)C(=O)CC(C)(O)C2C(=O)OC)cc1 (stereo not given)	-6.7%	-6.1%
COCCNC(=O)NC(=O)CN(CC(C)C)C1CC1	-9.6%[1.06 µM]	33.1%[activator]
COc1ccc(-n2cc(C(=O)N(C)c3cc(C)ccc3OC)c3ccccc3c2=O)cc1	66.8%[activator]	10.6%
C=CCN(Cc1ccc(Cl)s1)C(=O)C1CC1	-15.1%	-2.8%
CCC(C)NC(=O)[C@@H](NC(=O)N1CCn2c1nc1ccccc12)C(C)C (stereo not given in full)	-6.4%	-4.0%
O=C(COc1ncnc2ccc(Br)cc12)Nc1ccccc1	2.3%	-2.8%
CCS(=O)(=O)c1nc(S(=O)(=O)c2ccc(C)cc2)c(NCC(C)C)s1	-11.0%	-17.1%
O=C(NCc1ccc(F)cc1Cl)c1cc(=O)[nH]c2ccc(S(=O)(=O)N3CCCCC3)cc12	-19.0%	-0.2%
Cc1cc(-c2ccc(C)c(S(=O)(=O)Nc3cccc(C)n3)c2)on1	1.1%	0.4%
CC(C)CC(=O)NCC12CC3CC(CC(C3)C1)C2	1.3%	3.2%
Cc1ccccc1NC(=O)COC(=O)c1cc(=O)[nH]c2ccccc12	1.6%	7.1%
Cc1ccc(CNC(=O)CN2CCCN(Cc3ccc(F)cc3)S2(=O)=O)cc1	36.7%[activator]	-11.2%
OCCN(CCO)CC(O)COc1ccc(C23CC4CC(CC(C4)C2)C3)cc1 (stereo not given)	0.1%	?
COc1cc(C(=O)N(CCCN(C)C)c2nc3c(OC)cccc3s2)cc(OC)c1OC	1.3%	-6.5%
O=C1NC2(CCCC2)C(=O)N1Cc1coc(-c2cccs2)n1	-4.2%	49.1%[activator]
O=C(O)c1ccc(CNC2CCCC2)cc1	-4.6%	-3.7%
CCc1nc2ccccc2c(C(=O)OCC(=O)NC(C)(C)C)c1C	33.7%[activator]	18.8%
COc1ccc(/C=N/OCc2ccc(Br)cc2)cc1OCc1ccccc1	-3.4%	-1.0%
CCOc1ccccc1NC(=O)C(C)n1nnc2sc3c(c2c1=O)CCCC3 (stereo not given)	-2.9%	0.8%
CC(C)(C)C1CCc2c(sc(NC(=O)c3ccc(Cl)cc3)c2C(=O)NCc2ccco2)C1 (stereo not given)	-8.9%	-10.2%
CCn1nc(C(=O)NC(c2cccs2)C(C)C)c2ccccc2c1=O (stereo not given)	24.4%	-1.3%
Cc1cc(C)c2c(CC(=O)Nc3nnc(C(C)C)s3)coc2c1	-15.2%	-7.3%
Cc1cc(NC(=O)C(C)Oc2ccc3ccc(=O)oc3c2)no1 (stereo not given)	0.4%	12.4%
Cc1cccc(NS(=O)(=O)c2ccc3c(c2)CCN3C(=O)C2CCC2)c1	68.7%[activator]	?
Fc1ccc(Nc2ncnc3onc(-c4ccc(Cl)cc4)c23)cc1Cl	-7.1%&-3.6%	-0.2%&-7.5%
COc1ccc(-c2cc(C(=O)Nc3cccc(C(C)=O)c3)no2)cc1OC	-2.4%	-5.0%
CC(C)CCn1c(SCC(=O)Nc2ccccc2)nc2c1c(=O)[nH]c(=O)n2C	-4.8%	1.2%
Cc1ccccc1-n1nc(CO)c(C(=O)NCc2cccnc2)n1	3.5%	-10.1%
CC(C)(c1ccc(O)cc1)c1ccc(Cl)cc1	-3.3%	7.5%
C=Cc1ccc(CSc2nc(-c3ccccc3Cl)nc3c2Cc2c(CO)cnc(C)c2O3)cc1	-9.0%	-22.7%
CCOc1ccccc1NC(=O)Cn1nc(C(=O)O)c2ccccc2c1=O	-0.3%	11.2%
O=C(NCc1cccc(CNC(=O)Nc2ccccc2C(=O)NCCc2ccccc2)c1)Nc1ccccc1C(=O)NCCc1ccccc1	5.4%	13.9%
O=C1CCSc2ccc3ccccc3c21	-9.8%	3.6%
CC(=O)Nc1cccc(-c2nnc(SCC(=O)c3cc([N+](=O)[O-])ccc3Br)o2)c1	-14.4%	-3.4%
CCOc1ccc(NC(=O)CN2CCN(Cc3ccccc3)S2(=O)=O)cc1	-20.8%	-24.6%
CCc1ccc(NC(=O)C2CCC(CNS(=O)(=O)c3cccs3)CC2)cc1 (stereo not given)	9.1%	29.0%
CCc1nc(SCc2coc(-c3cccc(Cl)c3)n2)n[nH]1	6.9%	43.8%[activator]
CN(C)c1nc(N)nc(COc2ccc3ccccc3c2Br)n1	8.1%	0.0%
CC1Cc2cc(S(=O)(=O)NCc3ccc(F)cc3)ccc2N1C(=O)C1CCC1 (stereo not given)	32.8%[activator]	-8.1%
Cc1ccc(-n2nnnc2CNC(=O)c2ccccc2C)cc1C	8.4%	-11.9%
O=C(NCc1ccc(F)cc1)c1ccc2c(Cl)c3c(nc2c1)CCCC3	-3.6%	-23.9%
COc1ccc(C(=O)Oc2ccccc2Cl)c(OC)c1	29.0%	111.9%[activator]
Clc1ccc2c(Cl)c3c(nc2c1)CCCC3	-1.7%	10.6%
CC(C)c1ccc(S(=O)(=O)N2CCN(C(=O)C3CC(=O)Nc4cc(F)ccc43)CC2)cc1 (stereo not given)	-8.6%	-12.9%
Cc1ccc(-n2c(/C=C/c3cccc(C(F)(F)F)c3)nc3ccccc3c2=O)cc1	-11.6%	-14.1%
Cc1cc2cc(NC(=O)c3cccc(C)c3C)ccc2[nH]1	22.4%	189.6%[activator]
CCC(C)NC(=O)c1cc(-c2cccs2)nc2ccccc12 (stereo not given)	-0.4%	-0.1%
CN(CC(=O)NC(C)(C)C)C(=O)CCc1ncc(-c2ccccc2F)o1	-1.6%	78.4%[activator]
CC(NC(=O)Cn1ccc2cc(S(=O)(=O)N3CCCCCC3)ccc21)c1ccccc1 (stereo not given)	105.6%[activator]	-18.7%
C[C@@H]1CC2(CCCN2)C[C@H]1C	3.3%	10.6%
CC(=O)c1cccc(NC(=O)c2sc3nc(-c4ccc(F)cc4)cn3c2C)c1	11.4%	24.5%
CCCc1nc2ccccc2c(C(=O)OCC(=O)NC(C)C(C)C)c1CC (stereo not given)	-25.2%	-26.5%

# The list continues:
SMILES	StopGo RLuc	StopGo FLuc
COc1ccc(NC(=O)Nc2nnc(N3CCCCCC3)s2)cc1	-7.3%	15.0%
Cc1ccccc1Nc1nc(-c2cc3cc(Cl)ccc3oc2=O)cs1	-3.0%	-3.6%
COc1ccc(NC(=O)Cn2ncc3ccccc3c2=O)cc1	4.5%	0.0%
CC(=O)C12CC3CC(C1)CC(C(C)=O)(C3)C2	37.1%	280.2%[activator]
Cn1c(=O)c2c(ncn2CC(=O)Nc2ccc(Cl)cc2)n(C)c1=O	-7.5%	2.4%
Cc1cc(NC(=O)Nc2nnc(N3CCCCC3)s2)ccc1Br	4.1%	-10.8%
Cc1ccc2nc(-c3ccc(Cl)cc3)cc(C(=O)OCC(=O)c3ccccc3)c2c1	17.2%	-27.6%
CN1CC(=O)N(CC(=O)Nc2ccc(OC(F)(F)F)cc2)c2ccccc2C1=O	4.0%	-6.6%
CCC(C)NC(=O)/C(C#N)=C/c1c(C)[nH]c2ccccc12 (stereo not given)	57.0%[activator]	0.0%
CCc1ccc2ncc3c(-c4ccc(C)cc4)nn(CC(=O)Nc4ccc(C)cc4)c3c2c1	1.8%	1.4%
C/C(=N\O)c1ccc(-n2cccc2)cc1	31.1%	229.5%[activator]
Cc1ccc(-c2cnc(SCC(=O)Nc3ccc(F)c(F)c3)o2)cc1C	27.4%	57.9%[activator]
O=C(CSc1nc2ccccc2o1)NC1CCCCCC1	-7.3%	-1.0%
CCN(CC)CCCOC(=O)c1ccccc1	-8.7%	-17.1%

# Ordered by molecular weight (rising): part of the list above
SMILES	StopGo RLuc	StopGo FLuc
O=C1CCSc2ccc3ccccc3c21	-9.8%	3.6%
COc1ccc(-c2cc(C(=O)Nc3cccc(C(C)=O)c3)no2)cc1OC	-2.4%	-5.0%
O=C1c2ccccc2NC(c2cccc(Cl)c2)N1c1ccc(N2CCOCC2)cc1 (stereo not given)	-5.1%	6.5%

# An excerpt. The share of hits here may be higher or lower than overall.
